# Screening results as filed in PubChem BioAssay.
# eIF4H inh = human eIF4H binding inhibitors, primary screen, translation initiation inhibitor project, biochemical, uHTS, fluorescence polarization. eIF4H fluorescence polarization binding assay. Eukaryotic translation initiation factor 4H (Homo sapiens), Q15056. 290,000 compounds, 0.94% hits. inhibition, % at 35 µM;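 active = 50% or more with normal probe brightness, or confirmed in later tests; about a fifth of its hits are not listed in these tables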;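 also: calls also rest on retests at 20 µM and on dose response follow-up; 0% = protein and probe with vehicle and 100% = probe without protein; strong numbers were not always called active; many hits fall short of the cut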
# Env fusion inh = inhibitors of HIV-1 Env-driven cell-cell fusion, primary screen, HeLa-JRFL effector, CEM21 target cells, luciferase. AID 651610, 2012. inhibition, % at 12.3 µM. 360,000 compounds, 1.1% hits;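 active = mean replicate inhibition score of at least 50 and every replicate individually at or above 50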;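 also: 0% = plate neutral controls and 100% = maraviroc near 300 nM; one replicate is shown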
# Rce1 inh = yeast Rce1p protease inhibitors, primary screen, biochemical, fluorescence, cell-free homogeneous; yeast membranes, quenched prenylated peptide cleavage fluorescence; 290,000 compounds, 0.27% hits; calls only; AID 2563, 2010; CAAX prenyl protease 2 (Saccharomyces cerevisiae (strain ATCC 204508 / S288c)), Q03530;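 active = fall in fluorescence gain of 50% or more versus controls, with final raw signal at or below 3038400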;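 also: plate controls were neutral control wells for no effect and wells lacking membranes for full effect; tested at 10 µM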
# Target sequence (Q03530 whole entry, looked up): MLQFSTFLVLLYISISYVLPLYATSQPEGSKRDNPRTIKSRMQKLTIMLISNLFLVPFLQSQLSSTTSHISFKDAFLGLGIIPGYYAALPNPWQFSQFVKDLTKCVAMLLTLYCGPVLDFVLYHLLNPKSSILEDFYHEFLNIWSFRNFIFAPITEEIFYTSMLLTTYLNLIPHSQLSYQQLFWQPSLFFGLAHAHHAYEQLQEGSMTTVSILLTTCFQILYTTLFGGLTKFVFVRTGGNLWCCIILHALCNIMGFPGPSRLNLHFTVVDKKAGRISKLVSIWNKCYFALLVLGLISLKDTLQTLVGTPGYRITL
# MT1-MMP act inh = blockers of MT1-MMP proenzyme processing, primary screen, HT1080 RFP-PRO-GFP cells, GFP/RFP fluorescence; Matrix metalloproteinase-14 (Homo sapiens), P50281; GFP/RFP ratio fluorescence, overnight; percent of plate control window, DMSO zero; GFP/RFP ratio change, % at 20 µM; 360,000 compounds, 0.061% hits; AID 651647, 2012;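 active = GFP/RFP ratio change of at least 30% with cell ATP level not reduced by more than half and red fluorescence within 50% of control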; also: strong numbers were not always called active
#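 Assay system: HT1080 cells carrying an RFP-PRO-GFP reporter | Dosing: Single dose of 20 µM compound, 1% DMSO final | Incubation: Cells overnight before dosing, compound overnight, 37 °C, 5% CO2 | Evaluation: GFP/RFP fluorescence ratio | Control set: DMSO and RFP-L50D-GFP cell wells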
# UUG fidelity = modulators of yeast start codon fidelity, primary screen, whole organism, S. cerevisiae, single point, plate reader; S. cerevisiae UUG-firefly luciferase reporter, luminescence/redox ratio; activity score, % at 18.7 µM; 350,000 compounds, 0.13% hits; AID 602363, 2012;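 active = replicate mean at a twofold rise or more, about +100% in these data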;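 also: firefly luciferase made from a UUG start codon reports start codon fidelity; reporter light over untreated wells divided by growth signal over untreated wells; some hits fall short of that in this replicate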
# PABP polyA inh = PABP poly(A) RNA binding inhibitors, primary screen, biochemical, fluorescence polarization, uHTS; Polyadenylate-binding protein 1 (Homo sapiens), P11940; inhibition, % at 35 µM; 290,000 compounds, 1% hits;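 active = 50% or more with normal probe brightness, or confirmed in later tests; about a fifth of its hits are not listed in these tables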;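 also: calls also rest on retests at 20 µM and on dose response follow-up; controls were probe without protein and protein plus probe with vehicle; some compounds called inactive have numbers as strong as hits; many hits fall short of the cut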
# CSC inhib = cancer stem cell viability inhibitors, primary screen, luminescence; cancer stem cell-like cells viability; inhibition, % at 7.5 µM; 300,000 compounds, 1.1% hits; AID 2717, 2010;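 active = mean at 75% or more and at least half the replicates too; tested in HMLE shEcad cells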;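 also: 0% = median of negative and 100% = median of positive control wells; the first replicate is given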
# MT1-MMP act inh RFP = second read-out of MT1-MMP act inh, no call of its own (marks repeat the call); RFP signal change, %; measured here: RFP expression control read;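 0 = vehicle wells; hits needed this value within 50% of zero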
# * = called active by the depositor; i = inactive; . = not tested or not shown.
SMILES,eIF4H inh,Env fusion inh,Rce1 inh,MT1-MMP act inh,MT1-MMP act inh RFP,UUG fidelity,PABP polyA inh,CSC inhib
CCN(c1ccccc1)S(=O)(=O)c1ccc(C(=O)Nc2ncccc2O)cc1,-4,1,i,4,-2,-17,1,1
Cc1ccc(S(=O)(=O)CC(=O)NC2CC2)cc1,15,.,i,-2,1,-8,13,-7
COCC(=O)Nc1cccc(-c2ccc3nncn3n2)c1,.,2,i,1,2,-24,.,-4
Oc1ccc(C2C=C(c3ccc(F)cc3)Nc3ncnn32)cc1 (stereo not given),2,-21,i,-5,2,.,12,.
COc1cccc(C(=O)NCC(=O)N/N=C(\C)Cc2ccccc2)c1,-9,-3,i,3,4,-4,-10,-13
Cc1ccc2oc(-c3ccc(NC(=O)CC(C)C)cc3)nc2c1,-12,.,i,-2,-4,-8,-2,8
Cc1ccc(N2C(=O)C3CCC(C)(C2=O)C3(C)C)cc1 (stereo not given),-9,10,i,0,-2,.,2,-12
Cc1ccc(S(=O)(=O)NCCn2nc(C)cc2C)cc1,-5,4,i,1,0,-9,0,-6
O=C(CCc1ccccc1)NC1CCS(=O)(=O)C1 (stereo not given),.,-25,.,6,1,-12,.,.
N#CCn1c(C2CCCCC2)nc2ccccc2c1=O,12,0,i,1,2,-3,8,55
c1ccc(SCCCCN2CCOCC2)cc1,-11,4,i,3,5,-17,4,5
CN(Cc1cccc(F)c1)C(=O)C1CC(=O)N(Cc2ccco2)C1 (stereo not given),.,-18,.,-1,2,0,.,.
Cc1cnc(NC(=O)CN2CCN(c3ccccn3)CC2)s1,7,i,i,2,5,-14,4,-6
COC(=O)C(NC(C)=O)(Nc1nc2c(C)cc(C)cc2s1)C(F)(F)F (stereo not given),0,.,i,7,1,-14,3,-5
COc1cc(/C=C(/C(=O)O)c2ccc(-c3ccccc3)cc2)cc(OC)c1OC,9,-25,.,-2,-4,-1,4,36
COc1cc(-c2cc(C(=O)Nc3cccc(S(=O)(=O)N(C)C)c3)c3ccccc3n2)cc(OC)c1OC,-5,10,i,-1,2,-2,9,1
CN(C)c1cccc(C(=O)NNC(=S)NC2CCCC2)c1,-4,11,i,5,-1,-30,7,13
CCCC(=Nc1ccccc1OC)C1=C(O)CC(c2ccccc2)CC1=O (stereo not given),-2,-9,i,5,8,.,-7,-3
CC(C)(C)c1ccc(CC(=O)N2CCC2(C)C(=O)NS(=O)(=O)Cc2ccccc2)cc1 (stereo not given),.,6,.,2,5,-1,.,.
CCNC(=S)NNC(=O)c1csc2c1CCCC2,-10,.,i,2,-5,-22,2,-4

# Molecules from the list above that contain an aryl methoxy group, in the order listed:
SMILES,eIF4H inh,Env fusion inh,Rce1 inh,MT1-MMP act inh,MT1-MMP act inh RFP,UUG fidelity,PABP polyA inh,CSC inhib
COc1cccc(C(=O)NCC(=O)N/N=C(\C)Cc2ccccc2)c1,-9,-3,i,3,4,-4,-10,-13
COc1cc(/C=C(/C(=O)O)c2ccc(-c3ccccc3)cc2)cc(OC)c1OC,9,-25,.,-2,-4,-1,4,36
COc1cc(-c2cc(C(=O)Nc3cccc(S(=O)(=O)N(C)C)c3)c3ccccc3n2)cc(OC)c1OC,-5,10,i,-1,2,-2,9,1
CCCC(=Nc1ccccc1OC)C1=C(O)CC(c2ccccc2)CC1=O (stereo not given),-2,-9,i,5,8,.,-7,-3

# The listing continues:
SMILES,eIF4H inh,Env fusion inh,Rce1 inh,MT1-MMP act inh,MT1-MMP act inh RFP,UUG fidelity,PABP polyA inh,CSC inhib
CNC(=O)CCC(=O)Nc1ccc(C(=O)OC)cc1,1,-10,i,7,10,-6,4,-9
OC(Cn1cncn1)(c1ccccc1)c1ccccc1,-10,-23,i,2,1,-21,-3,-14
CCC1Oc2ccccc2N(CC(=O)NC2CCCC2)C1=O (stereo not given),-1,-6,i,2,0,-42,8,-8
Cn1c(N)c(C(=O)c2ccc(F)cc2F)c(=O)n(C)c1=O,-6,21,i,-2,0,4,-2,-6
Cn1cc(-c2ccc(C(=O)NCc3cccc(Cl)c3)c3occc23)cn1,.,0,.,3,-1,-17,.,.
N#Cc1nc(COc2ccc(Br)cc2)oc1NCCCn1ccnc1,0,.,i,-11,-8,6,-8,50
CC(C)CCNC(=O)C1CCCN1C(=O)NC1CCCCC1 (stereo not given),3,.,.,-2,0,-14,16,.
COc1ccc(Nc2nccc3c2nnn3C)cc1,-10,-130,i,2,4,-24,-2,.
COc1ccc(CCN=C(N)NS(=O)(=O)c2cccs2)cc1,-7,8,i,-2,0,.,8,-7
CCCc1cc(C(=O)Nc2cc(C)nn2-c2ccccc2)no1,2,60*,i,2,5,6,-6,-7
O=C1C2C3CC(C(Br)C3Br)C2C(=O)N1c1ccccn1 (stereo not given),-6,-31,i,-2,1,-19,-3,-6
O=C(CN1C(=O)S/C(=C\c2ccc(Cl)cc2)C1=O)NCCCn1ccnc1,5,2,i,3,-2,-17,0,64
Cc1nc(NC(C)c2ccccc2)c2oc3ccccc3c2n1 (stereo not given),1,.,i,-7,-26,-2,15,-2
NS(=O)(=O)c1cccc(NC(=O)CSc2nc3ccc(Cl)cc3[nH]2)c1,3,-24,i,7,-5,-12,13,-15
CCOC(=O)N1CC=C2C(C#N)=C(N)C(C#N)(C#N)[C@H](c3ccccc3OCC)[C@H]2C1,1,.,i,-29,-2,-8,3,3
COC(=O)C(C(=O)OC)c1ccc(-n2cccc2)cc1,-14,4,i,3,3,-4,-16,1
S=C(NCc1ccco1)Nc1cc(-c2ccccc2)[nH]n1,0,-2,i,0,-6,-24,-8,.
Cc1ccccc1C(=O)N1CCC(C(=O)O)CC1,0,-41,i,4,4,-6,11,-6
CCCc1nc2ccc(NC(C)=O)cc2c(=O)n1Cc1cccc(Cl)c1,-4,10,i,3,0,-22,5,4
CCOC(=O)c1ccc(CNCc2ccc(Br)cc2)cc1,-4,5,i,9,4,0,1,9

# Reprinted at random: three entries already listed.
SMILES,eIF4H inh,Env fusion inh,Rce1 inh,MT1-MMP act inh,MT1-MMP act inh RFP,UUG fidelity,PABP polyA inh,CSC inhib
CNC(=O)CCC(=O)Nc1ccc(C(=O)OC)cc1,1,-10,i,7,10,-6,4,-9
OC(Cn1cncn1)(c1ccccc1)c1ccccc1,-10,-23,i,2,1,-21,-3,-14
N#Cc1nc(COc2ccc(Br)cc2)oc1NCCCn1ccnc1,0,.,i,-11,-8,6,-8,50

# Carrying on.
SMILES,eIF4H inh,Env fusion inh,Rce1 inh,MT1-MMP act inh,MT1-MMP act inh RFP,UUG fidelity,PABP polyA inh,CSC inhib
COc1ccc(NC(=O)COC(=O)C2CCN(S(=O)(=O)c3cccs3)CC2)cc1OC,.,-3,.,-2,-1,-1,.,2
CCN1C(=O)[C@H]2[C@@H](c3ccc(C(F)(F)F)cc3)N[C@]3(CCCN(Cc4ccc(F)cc4)C3=O)[C@H]2C1=O,.,-62,.,2,3,0,.,.
COc1ccc(CCN2CC(C(=O)N(C)CCc3cn[nH]c3)CCC2=O)cc1 (stereo not given),-7,2,i,0,-1,-4,4,.
CCSC1=C(C#N)C(c2ccccc2OC)CC(=O)N1 (stereo not given),-4,12,i,-1,-3,-10,-3,-1
CN(C)/C=C1/N=C(c2ccccc2)OC1=O,5,.,i,-4,1,-8,4,-12
CN1CCN(C2=C(Cl)C(=O)N(c3cccc(Cl)c3)C2=O)CC1,36,-13,i,-3,4,-18,-16,7
C/C(=N\NC(=O)c1c(Cl)cnn1C)c1cccnc1,14,.,i,0,4,-6,-12,.
CC(C)[C@H](NS(=O)(=O)c1ccc2c(c1)OCCO2)C(=O)OCC(=O)Nc1cc(Cl)ccc1Cl,-9,-1,i,2,3,8,-8,11
CC(C)Oc1cccc(C(=O)C2CCCN(Cc3cnc(N4CCOCC4)s3)C2)c1 (stereo not given),2,16,i,1,-16,.,-10,-11
CO/N=C/NC(=O)c1c(OC)ccnc1Oc1ccc(F)cc1,6,.,i,2,2,-15,-2,-14
CCOC(=O)c1ccc(Cn2cnc3ccccc3c2=O)cc1,-4,-15,i,-4,-1,-24,4,-9
CC1(C)CC(=O)C2=C(C1)Nc1[nH]n(-c3ccccc3)c(=O)c1C2c1ccc2c(c1)OCO2 (stereo not given),-6,-53,i,1,-3,-4,5,.
O=C(CN1C(=O)/C(=C\c2ccc(C(F)(F)F)cc2)Sc2ccccc21)NCc1ccco1,-6,-8,i,6,-1,.,-2,30
Cc1ccc(Nc2nc(C)cs2)cc1,0,-55,i,1,5,-21,5,.
O=C(O)c1cccc(N/N=C/c2sc(N3CCOCC3)nc2-c2ccccc2)c1,-1,.,i,2,8,15,1,0
CCNC(=O)C1CCCN(C(=O)c2ccc(C)c(F)c2)CC1 (stereo not given),.,-38,.,0,3,-17,.,.
NS(=O)(=O)c1ccc(CCNC(=S)Nc2ccc(S(N)(=O)=O)cc2)cc1,-3,-6,i,4,7,.,2,-11
Cc1cccc(C(=O)NCCNC(=O)c2ccco2)c1,-6,-3,i,1,5,2,-15,.
Cc1nc2cc(-c3cccc(F)c3)nn2c(N2CCN(C(=O)c3ccco3)CC2)c1C,-8,.,i,-12,-15,-23,-14,-5
COc1ccc(Br)cc1/C=N/NC(=O)CNC(=O)C1COc2ccccc2O1 (stereo not given),-1,-3,i,1,-2,-9,-3,1
CSc1ccc(CN2C(=O)NC3(CCCCCCC3)C2=O)cc1,-8,0,i,0,-2,.,-1,5
Cc1ccc(OCC(=O)NCc2cccnc2)cc1,5,-27,i,2,2,.,-4,3
O=C(Nc1ccc2oc(-c3cccnc3)nc2c1)c1ccco1,7,.,i,0,4,.,-4,6
FC(F)(F)c1cc(-c2ccc(Cl)cc2)nc(NCc2cccnc2)n1,-15,.,i,-3,-16,-16,6,77*
CN(C)S(=O)(=O)c1ccc(N2CCCC2)c(C(=O)Nc2ccc(N3CCOCC3)cc2)c1,-9,-28,i,5,1,-10,-12,-15
CCOc1ccccc1NC(=O)C(c1ccccc1)N1CCN(C(=O)c2ccco2)CC1 (stereo not given),.,6,.,-2,-1,2,.,.
COc1cc(NS(=O)(=O)c2ccc(NC(=O)COc3ccccc3C)cc2)nc(OC)n1,-4,.,i,5,1,-3,18,-7
N#Cc1cccnc1Nc1cccc(Cl)c1,-2,.,i,-5,-1,-5,0,4
CCCC1(C(=O)OCC)NC(c2ccc(OC)cc2OC)C2C(=O)N(c3ccc4c(c3)OCCO4)C(=O)C21 (stereo not given),-4,.,i,1,3,-12,-12,-4
Cn1ccnc1SC(=O)N1c2ccccc2Sc2ccccc21,8,.,i,-1,-5,4,2,-4
CCOc1ccc(NC(=O)COc2ccc(C(=O)NCCc3ccccc3)cc2)cc1,-3,.,i,3,2,-15,-3,1
c1ccc(CN2CCC(CNc3ncnc4ccccc34)C2)cc1 (stereo not given),.,19,.,2,-12,-10,.,.
CCCCn1c(SCC(=O)N2CCC(C(=O)OCC)CC2)nc2cc(S(N)(=O)=O)ccc21,14,.,i,1,3,-6,7,-5
COCc1cc(C)nc(NC2CC(C)(C)NC(C)(C)C2)c1C#N,-1,-4,i,-2,1,-11,-3,9
C[C@@H]1CC=C[C@H]2[C@H]1C(=O)N(Cc1ccccc1)[C@H]2c1ccc2ccccc2c1Br,4,31,i,-8,-14,-26,12,.
COc1cccc(C2C([N+](=O)[O-])=C(N)Oc3cc(C)oc(=O)c32)c1 (stereo not given),9,-3,i,1,5,-17,3,-8
O=C(NCCCn1ccnc1)C(=O)NCC1OCCN1S(=O)(=O)c1ccc(Cl)cc1 (stereo not given),5,-38,i,4,3,-8,9,42
O=C(NC(=S)Nc1ccc(CN2CCOCC2)cc1)c1cccc([N+](=O)[O-])c1,3,12,i,9,2,9,2,-12
